Screening results: PubChem, The Scripps Research Institute Molecular Screening Center
OX1R antag-1: antagonists of human orexin 1 receptor (OX1R) | Orexin/Hypocretin receptor type 1 (Homo sapiens), O43613 | OX1R-expressing cells, FRET antagonist read-out | inhibition, % at 6.6 µM | 1.8% of 330,000 active | AID 485270, 2010; in the data active = inhibition mostly above about 38%, no sharp cut-off; inactive = mostly below about 40%;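 also: 0% = agonist challenge alone and 100% = reference antagonist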
Target sequence (O43613 whole entry, looked up): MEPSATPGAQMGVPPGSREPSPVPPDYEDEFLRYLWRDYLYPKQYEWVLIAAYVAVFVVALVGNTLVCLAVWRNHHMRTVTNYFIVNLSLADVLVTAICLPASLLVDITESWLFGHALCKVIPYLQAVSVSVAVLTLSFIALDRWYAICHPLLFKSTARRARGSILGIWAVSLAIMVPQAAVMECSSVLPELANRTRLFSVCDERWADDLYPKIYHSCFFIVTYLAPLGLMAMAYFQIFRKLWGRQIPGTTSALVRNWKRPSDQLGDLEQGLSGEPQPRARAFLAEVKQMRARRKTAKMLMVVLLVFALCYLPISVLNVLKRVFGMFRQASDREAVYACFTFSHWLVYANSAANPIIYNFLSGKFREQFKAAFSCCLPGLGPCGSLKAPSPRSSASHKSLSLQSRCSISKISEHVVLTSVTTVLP
OX1R antag-2: OX1R (HCRTR1) antagonists, primary screen, fluorescence, CHO/OX1R cells, Fluo-8 calcium, orexin A. 0.43% of 330,000 active. AID 434989, 2010. Fluo-8 calcium fluorescence. inhibition, % at 5 µM;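 active = inhibition above its plate's threshold, mean inhibition of all tested compounds on the plate plus 3 SD, cut at about 37% in these data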;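 also: 0% = orexin A challenge wells and 100% = SB-334867-A antagonist wells; not every result past the cut was called active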
* = called active by the depositor. This is a subset, and most or all hits are left out here.

OX1R antag-2	OX1R antag-1	Compound
-26	38	CCn1nc(C(=O)NCC(c2cccs2)N2CCOCC2)c2ccccc2c1=O (stereo not drawn)
-14	40	C=CCn1c(SCC(=O)NCc2ccco2)nc2sc3c(c2c1=O)CCC3
-18	12	CCOC(=O)C(=O)N/N=C(/c1ccccc1)c1ccc(OC)cc1
-26	-3	O=C(NCCN1CCOCC1)c1c(Cl)cccc1Cl
-3	-3	Cc1ccc(C2=NN(S(=O)(=O)c3ccccc3)C(c3ccco3)C2)cc1 (stereo not drawn)
-1	8	O=S1(=O)CCC(NS(=O)(=O)/C=C/c2ccccc2)C1 (stereo not drawn)
-31	19	CCC(=O)N1CCc2cc(S(=O)(=O)CCC(=O)Nc3ccc(CC)cc3)ccc21
-46	38	Cc1ccc(C(C(=O)NC2CCCCC2)N(CCC(C)C)C(=O)CNC(=O)c2ccco2)o1 (stereo not drawn)
-14	1	CC(Oc1ccc(Cl)cc1)C(=O)NCCCn1ccnc1 (stereo not drawn)
-32	7	C=CCn1c(SC2CCOC2=O)nc2sc(CC)cc2c1=O (stereo not drawn)
-5	1	CCC(=O)Nc1ccc(NC(=O)CSc2nnnn2-c2ccc(OC)cc2)cc1
-29	10	O=C(NCCS(=O)(=O)N1CCN(c2ccc(F)cc2)CC1)c1ccco1
-38	24	Cc1cc(=O)oc2cc(OCC(=O)N3CCc4ccccc4C3)ccc12
1	10	O=C(C[n+]1cccc(/C=N/O)c1)N1CCCCCC1
7	16	CC(=O)Nc1ccc(S(=O)(=O)N2CCCC(C(=O)O)C2)cc1 (stereo not drawn)

For convenience, part of the list above:
OX1R antag-2	OX1R antag-1	Compound
-14	40	C=CCn1c(SCC(=O)NCc2ccco2)nc2sc3c(c2c1=O)CCC3
-18	12	CCOC(=O)C(=O)N/N=C(/c1ccccc1)c1ccc(OC)cc1
-26	-3	O=C(NCCN1CCOCC1)c1c(Cl)cccc1Cl

Next section
OX1R antag-2	OX1R antag-1	Compound
-12	17	O=C(COc1ccccc1)Nc1nnc(-c2ccco2)o1
-3	2	COc1ccc(N=C2SCC(=O)N2c2ccc(OC)cc2)cc1
-22	13	CCCCOC(=O)Nc1nnc(CCOCC)s1
-19	8	COc1ccc(C2c3ccc(O)cc3Oc3ncn(CC(C)C)c(=N)c32)cc1 (stereo not drawn)
-25	30	Fc1ccccc1-c1csc(=Nc2cccnc2)n1CCCn1ccnc1
-1	28	CC(C)c1ccc(CCNC(=O)c2ccc([N+](=O)[O-])cc2)cc1
-35	46	CC(=O)N1CCN(c2ccc(NCc3ccccc3)cc2)CC1
-22	12	Oc1ccccc1-c1csc(-c2ccccc2)n1
6	15	COc1ccccc1N(C)S(=O)(=O)c1ccc(C(=O)O)cc1
-13	17	Cn1ccc2cc(-c3ccc4ncnc(NCc5cccs5)c4c3)ccc21
-15	11	COC(=O)c1ccc(C(C(=O)NC2CCCCC2)N(Cc2ccc(F)cc2)C(=O)Cc2cccs2)cc1 (stereo not drawn)
-7	8	CN(c1cccnc1)c1ncnc2[nH]ncc12
0	24	COc1ccc([N+](=O)[O-])cc1NC(=O)Nc1cccc(Cl)c1
-9	18	Cn1c(SCC(=O)NC(C)(C)C)nnc1-c1ccc(C(C)(C)C)cc1
-39	0	Cc1ccc(CS(=O)Cc2ccc(C(=O)N3CCN(c4ccccc4)CC3)o2)cc1 (stereo not drawn)

Some of these compounds in order of the OX1R antag-1 value, rising.
OX1R antag-2	OX1R antag-1	Compound
-5	1	CCC(=O)Nc1ccc(NC(=O)CSc2nnnn2-c2ccc(OC)cc2)cc1
-3	2	COc1ccc(N=C2SCC(=O)N2c2ccc(OC)cc2)cc1
1	10	O=C(C[n+]1cccc(/C=N/O)c1)N1CCCCCC1
-13	17	Cn1ccc2cc(-c3ccc4ncnc(NCc5cccs5)c4c3)ccc21
-25	30	Fc1ccccc1-c1csc(=Nc2cccnc2)n1CCCn1ccnc1
-46	38	Cc1ccc(C(C(=O)NC2CCCCC2)N(CCC(C)C)C(=O)CNC(=O)c2ccco2)o1 (stereo not drawn)

Later entries:
OX1R antag-2	OX1R antag-1	Compound
5	1	O=C(CN(C1CCCCC1)S(=O)(=O)c1ccc(F)cc1)NCCCO
-3	0	COc1cc(NC(=O)COn2nnc3ccc(S(C)(=O)=O)cc32)cc(OC)c1
-10	13	COc1cc(NC(=O)c2cc([N+](=O)[O-])ccc2NC(=O)CNCc2ccccn2)cc(OC)c1
-19	21	CCOc1cc(C=C(C#N)C#N)ccc1Oc1ccc([N+](=O)[O-])cn1
6	9	Fc1ccc(-n2nnc(-c3ccccc3Cl)n2)cc1
-5	8	CCC(CC)c1nc(NCCC(=O)O)c2ccccc2n1
-25	5	Cc1ccccc1-n1cc(CNCc2c(C(=O)N(C)C)nc3ccc(Cl)cn23)cn1
-13	10	COc1cc(NC(=O)c2cc(C)nc3ccccc23)cc(OC)c1
2	9	C/C(=N\NC(=O)c1ccccc1)c1ccc2c(c1)OCO2
-9	48	O=C(CSc1ccc2c(c1)OCCO2)Nc1cccc(S(=O)(=O)N2CCCCC2)c1
-4	18	Cc1cc(OCCCN2CCN(Cc3ccccc3)CC2)ccc1[N+](=O)[O-]
-27	13	O=C(OCCCc1cc2ccccc2c(=O)o1)c1ccc(C(F)(F)F)cc1
-9	7	O=C(Nc1cccc(Br)c1)C1CCCC1
-7	0	COC(=O)c1scc(C)c1-n1ccc(C(=O)C(=O)N(C)C)c1
-13	23	Cc1cc(NC(=O)CSc2nnc(C(C)N(C)C)n2-c2ccc(F)cc2)no1 (stereo not drawn)
-11	23	CNc1ncc(C(=O)c2ccc(Cl)c(Cl)c2)s1
-33	24	CCc1sc(NC(=O)C(C)C)nc1-c1ccccc1
-6	13	CCC(C)NC(=O)CSc1ccc(NC(C)=O)cc1 (stereo not drawn)
-40	23	COc1ccc(CCNc2cc(C)nc3c(-c4ccccc4)c(C)nn23)cc1OC
-25	10	COc1ccccc1CNC(=O)CCNC(=O)Cn1cnc2ccccc2c1=O
-29	11	CCOc1cc(/C=N\Nc2ncc(F)c(N3CCOCC3)n2)ccc1Oc1nc(Cl)ncc1F
-19	19	CCC(=O)Nc1c(C)cc(C)cc1Cl
-18	4	COc1ccc(/C=N\NC(=O)c2ccccc2F)cc1COc1ccc(F)cc1F
-12	15	N/C(=N\OC(=O)/C=C/c1ccccc1)c1ccc(Br)cc1
-6	6	CC(C)c1ccc2occ(-c3nn[nH]n3)c(=O)c2c1
-13	27	CC(C)C[C@H](NC(=O)C1(c2ccccc2)CCN(C(=O)OC(C)(C)C)CC1)C(=O)N1CCC[C@H]1C(=O)O
-23	17	CC1(C(=O)N2CC3(CC(c4cccc(NC(=O)CC(c5ccccc5)c5ccccc5)c4)=NO3)C[C@@H]2C(N)=O)CC1 (stereo partly drawn)
-3	3	Clc1ccc(-c2nnc3n2-c2ccccc2SC3)cc1
-15	0	Oc1ccc(CN2CCN(c3ccccc3)CC2)c2cccnc12
-1	8	Cc1ccc(S(=O)(=O)c2nc(NCc3ccc4c(c3)OCO4)sc2Cl)cc1
-3	0	COc1ccccc1C(=O)Nc1ccc(C(=O)N2CCCC2)cc1
-9	5	CNCC(=O)Nc1ccc(OC(F)(F)F)cc1
-8	23	O=C(COC(=O)/C=C/c1ccccc1F)Nc1nnc(-c2ccccc2)o1
-12	15	CCCCC(=O)Nc1cccc(NC(=O)c2ccc(Br)cc2)c1
-17	23	CCC(CC)=NNC(=O)c1ccccc1OCc1ccc(F)cc1
-16	23	COc1ccc(C(=O)N2C(=O)c3ccc(N)cc3C2=O)cc1
-15	15	CC(C)(C)NC(=O)CN(C(=O)c1csnn1)c1cccc2c1CCCC2
-7	35	O=C(CSc1nc2cc3ccccc3cc2[nH]1)Nc1ccc(F)cc1
-9	24	O=c1c(Cc2ccccc2)c(O)c2cccc3c4c(n1c23)CCCC4
-14	5	Cc1csc(NC(=O)Cc2ccccc2[N+](=O)[O-])n1
-10	10	Cc1c(NS(=O)(=O)c2ccc(N3CCN(C)CC3)c([N+](=O)[O-])c2)c(=O)n(-c2ccccc2)n1C
-13	-2	Clc1ccc2c(c1)C(C1=NCCN1)c1ccccc1CS2 (stereo not drawn)
4	-8	CC1CC(C)CN(S(=O)(=O)c2ccc(C(=O)N3CCOCC3)cc2)C1 (stereo not drawn)
-15	8	CCOC(=O)C1CCCN(c2c(NCCN(CC)c3ccccc3)c(=O)c2=O)C1 (stereo not drawn)
-14	15	NS(=O)(=O)c1ccc(CCNC(=O)C(=O)NCC2OCCN2C(=O)c2ccc3c(c2)OCO3)cc1 (stereo not drawn)
-32	12	COC(=O)c1cccc(NC(=O)CSc2nnc(C)n2Cc2ccccc2)c1
-14	22	CC(C)N(Cc1nccn1C)C(=O)CC1C(=O)NCCN1Cc1ccc(F)c(F)c1 (stereo not drawn)
-16	2	CC/C(=N\NC(=O)Nc1nonc1N)c1ccc(OC)c(OC)c1
-2	17	COc1ccc(OC)c(CNC(=O)CCSCc2ccc(F)cc2Cl)c1
-15	19	CC(C)CC(=O)N1CCN(S(C)(=O)=O)CC1
-17	7	CCCc1cc(=O)oc2cc(C)c(CN3CCCC3)c(O)c12
-2	5	CC(C(=O)N1CCCC1)N1CCN(S(=O)(=O)c2ccc(OC(F)(F)F)cc2)CC1 (stereo not drawn)
-4	7	CC(C)(C)c1ccccc1NC(=O)c1cccnc1
-17	8	Cc1ccc(-c2n[nH]c(=O)c3ccccc23)cc1S(=O)(=O)NCC1CCCO1 (stereo not drawn)
-4	5	COc1ccccc1-c1ccc(/C=C2/C=C(C)OC2=O)o1
-20	9	COc1ccccc1NC(=O)c1cnc(SCC(=O)NCC2CCCO2)n(C)c1=O (stereo not drawn)
-15	12	COc1cc2cc(CN(CCCN3CCOCC3)C(=O)Nc3ccccc3F)c(=O)[nH]c2cc1OC
-18	29	CO/N=C\Cc1oc(=O)c(NC(=O)c2ccccc2)cc1C(=O)OC
-20	10	Cc1cc(C)n(CC(=O)c2cccc(N)c2)n1
-13	2	COc1cc(OC)cc(C(=O)Nc2ccc(C(=O)NCC3CCCO3)cc2)c1 (stereo not drawn)

Going on with the list:
OX1R antag-2	OX1R antag-1	Compound
-14	8	Cc1ccc(N2C(=O)N(CC(=O)Nc3ccc(C)cc3Cl)C(=O)C2C)cc1 (stereo not drawn)
-9	15	O=C1CS/C(=N\NC(=O)c2ccccc2)N1
-14	28	Cn1nc(C(=O)Nc2ccc3c(c2)OCO3)c2ccccc2c1=O
-13	3	COc1ccc([C@H]2CC(=O)C=C(c3ccc(Br)c4ccccc34)C2)cc1
-10	12	Cc1ccc(-c2nc(CS(=O)CC(=O)NCc3ccccn3)c(C)o2)cc1 (stereo not drawn)
-17	3	CN(CC(=O)NC(=O)NC1CCCCC1)Cc1ccccc1
-26	27	O=C(Cc1coc2ccc3ccccc3c12)N1CCCC1
-14	33	CC(=O)c1ccc(NC(=O)CSc2nnc(-c3ccoc3C)n2Cc2ccccc2)cc1
-1	10	Cc1cc(OCc2nn[nH]n2)c2c(C)c(Cc3ccccc3)c(=O)oc2c1
-14	-6	CCCOc1ccc(C(F)(F)F)cc1NC(=O)CN1C(=O)C(=O)N(CC)C1=O
-9	29	O=C(Nc1ncc(S(=O)(=O)c2ccc([N+](=O)[O-])cc2)s1)c1cccnc1
-8	25	O=C(N/C(=C\c1ccc(Br)cc1)C(=O)N1CCOCC1)c1ccc([N+](=O)[O-])cc1
-6	16	COc1ccc(Cn2c(=O)c3c(nc(NCCO)n3C)n(C)c2=O)cc1
-17	15	CCOc1ccc(C(=O)NCC(=O)NCC(c2cccs2)N2CCOCC2)cc1 (stereo not drawn)
-14	21	COc1ccc(-c2nc(SC)n(C)c(=O)c2C#N)cc1OC
-19	20	COc1ccc(CCN=C(NS(=O)(=O)c2ccccc2)c2ccccc2)cc1OC
-27	14	O=C(COc1ccc(Cl)cc1Cl)Nc1ccccn1
-17	3	COc1ccc(-c2nsc(SCC(=O)NCC3CCCO3)n2)cc1 (stereo not drawn)
-19	8	CCOC(=O)c1c(C)c(-c2ccccc2)n(CC(=O)NCCC(C)C)c1C
1	13	CCN(CC(=O)Nc1c(F)cccc1F)C(=O)CCNS(=O)(=O)c1ccccc1C(F)(F)F
-20	0	COC(=O)c1c(S(C)(=O)=O)nc(-c2ccccc2)[nH]c1=O
-15	23	CCOC(=O)N1CCN(CCC(=O)Nc2cc(OC)cc(OC)c2)CC1
-21	24	CCCN(CC(=O)Nc1ccccc1C)C(=O)CCNC(=O)c1ccccc1Cl
-28	33	Cc1ccc2nc(-c3ccncc3)c(NC3CCCC3)n2c1
-9	2	CCOC(=O)c1ccc(NC(=O)NNS(=O)(=O)c2cc(OC)ccc2OC)cc1
